PINK1 modulator = PINK1 expression modulation | PINK1 immunofluorescence, high-content cytometry, 24 h | Potency, µM (series often up to 76.6 µM), for inactives: at the top dose activation (PINK1 increase), actives largely listed as activators | actives 0.2% (n = 410,000) | AID 624263; active = well fitted activation curve with a large enough effect; inconclusive = small, poorly fitted or top-dose-only effect; inactive = flat fitted curve, though single readings scatter; cell line not stated here;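 also: potency is read from the fitted curve at half-maximal effect; % of control where 0% means no effect; nearly all actives have a fitted effect of over 65% in size; a mitochondrial uncoupler was the plate control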
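Decision-based qHTS: stable cells, 24 h exposure to five compound concentrations, CCCP as control. Fixed cells stained for PINK1 plus nuclear, mitochondrial and cell markers, cytometer read.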
TRPML1 agonist = activates the human TRPML1 channel; Q9GZU1; AID 624414; activation, % (test concentration not listed); actives 0.12% (n = 410,000); TRPML1-expressing cells, Ca2+ dye fluorescence, FDSS; host cell line not named in the record; reference of the full effect not given here; in the data active = activation above about 50%; inconclusive = about 30% to 50%; inactive = below about 30%; also: 0% is about no effect; the text of the record puts the active cut at 80%
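Kinetic FDSS Ca2+ read in Tet-induced TRPML1-DL cells (ABD Ca8 dye plus quencher, 45-90 min RT loading): baseline, then compound, then 110 s agonist window; EC80 agonist 54-4 at 4uM final added afterwards for a 110 s antagonist window.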
CtBP-E1A inh = blocks the CtBP interaction with E1A; AlphaScreen GST-E1A/His-CtBP binding, 1536-well; active compounds read low; control for the full effect not named in the record; activity change, % (test concentration not listed); actives 0.49% (n = 340,000); in the data active means activity change below about -65%; inconclusive means about -30% to -65%; inactive means above about -30%; also: % is scaled to controls: 0 for no effect and ±100 for the full control effect
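Homogeneous bead-based format: GST-tagged E1A captured on glutathione donor beads, His-tagged CtBP on nickel acceptor beads; compounds precede bead addition by 2 h at 37 °C.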
D2 ag = human D2 receptor agonism in beta-arrestin assay; P14416; DiscoveRx PathHunter D2 beta-arrestin, luminescence, 90 min; 100% = 57 uM dopamine signal; activation, % (no concentration beside the values); actives 0.084% (n = 360,000); AID 624465; in the data active = activation above about 40%; inconclusive = about 15% to 40%; inactive = below about 15%; also: compound concentration not given in the record; the text of the record calls up to 30% inactive
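Agonist mode: compounds alone added to overnight-plated D2 PathHunter cells for 90 min at 37 C, with 57 uM final dopamine (EC100) defining full response. Beta-arrestin recruitment detected by chemiluminescent reagent, read after 1 h at ambient temperature.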
Six1-Eya2 inh = inhibitors of human Six1/Eya2 interaction; AlphaScreen GST-Six1/His-Eya2 binding, biochemical; active compounds read low; control for the full effect not named in the record; Q15475+O00167; actives 0.56% (n = 360,000); activity change, % (concentration not given with the values); in the data active = activity change below about -65%; inconclusive = about -30% to -65%; inactive = above about -30%; also: % is scaled to controls: 0 for no effect and ±100 for the full control effect
Target sequence (O00167 whole entry, looked up): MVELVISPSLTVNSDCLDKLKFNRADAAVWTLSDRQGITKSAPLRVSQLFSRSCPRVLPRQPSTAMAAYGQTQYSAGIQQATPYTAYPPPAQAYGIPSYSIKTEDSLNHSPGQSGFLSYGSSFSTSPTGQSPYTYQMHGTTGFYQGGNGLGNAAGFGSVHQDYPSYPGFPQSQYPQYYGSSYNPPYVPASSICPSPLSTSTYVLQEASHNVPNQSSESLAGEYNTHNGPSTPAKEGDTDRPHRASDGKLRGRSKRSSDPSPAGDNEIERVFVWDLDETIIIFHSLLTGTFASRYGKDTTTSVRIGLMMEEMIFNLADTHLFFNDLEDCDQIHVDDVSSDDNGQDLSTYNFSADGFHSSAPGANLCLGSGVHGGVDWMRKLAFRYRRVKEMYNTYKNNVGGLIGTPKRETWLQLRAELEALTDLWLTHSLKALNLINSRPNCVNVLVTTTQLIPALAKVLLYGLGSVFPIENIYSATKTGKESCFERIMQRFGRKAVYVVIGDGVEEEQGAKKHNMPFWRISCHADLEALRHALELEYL
Target sequence (Q15475 whole entry, looked up): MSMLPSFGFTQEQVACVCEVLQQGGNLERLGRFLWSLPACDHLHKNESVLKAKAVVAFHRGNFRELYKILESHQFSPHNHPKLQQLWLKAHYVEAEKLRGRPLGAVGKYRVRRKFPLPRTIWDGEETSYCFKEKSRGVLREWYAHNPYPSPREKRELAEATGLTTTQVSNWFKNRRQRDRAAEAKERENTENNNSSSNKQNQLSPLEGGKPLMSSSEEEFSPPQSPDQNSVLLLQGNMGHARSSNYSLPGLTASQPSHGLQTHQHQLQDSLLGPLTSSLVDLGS
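AlphaScreen with GST-Six1 and His-Eya2 (5X mix: 250 nM and 500 nM), glutathione donor and nickel acceptor beads; buffer 50 mM Tris pH 8.0, 300 mM NaCl, 1 mM TCEP; 1 h at 37 C in the dark.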
D2 PAM = positive allosteric modulators of human D2 dopamine receptor. P14416. DiscoveRx D2 beta-arrestin cells, luminescence, 90 min; 100% = 57 uM dopamine signal. potentiation, % (test concentration not listed). actives 0.23% (n = 360,000); active = potentiation of 50% or more; inconclusive = 30% to 50%; inactive = 30% or less;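 also: compound concentration not given in the record; tested on top of an EC20 dose of dopamine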
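PathHunter beta-arrestin assay in DiscoveRx D2 cells. Compounds were added with an EC20 of dopamine (50 nM final) for 90 min at 37 deg C. Luminescence was read 1 h after detection reagent, with 57 uM dopamine as the EC100 control.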
* hit, by the source's call; u = inconclusive; x = no result given; & = joins results of further samples; [ ] = another dose, or the depositor's remark. Not a hit list; 1.3% or so of the library scored in one or more.

Values run as follows: PINK1 modulator	TRPML1 agonist	CtBP-E1A inh	D2 ag	Six1-Eya2 inh	D2 PAM
Cc1ccsc1/C=N/NC(=O)CNC(=O)c1ccc(S(=O)(=O)N2CCOCC2)cc1
    0.8%	-0.1	x	-0.2	0	-2
Cc1cccc(Nc2nc(CC(=O)O)cs2)c1
    5.0%	0.6	-11	-0.1	-2	-9
COc1ccc(NC(=S)NC(NC(C)=O)C(Cl)(Cl)Cl)c([N+](=O)[O-])c1 (stereo not given)
    -0.5%	0.7	2	-5.5	-2	-18
Cc1ccc(-c2cc3nc(-c4ccccc4)cc(N)n3n2)cc1
    5.3%	0.2	1	-0.8	1	-1
Cc1cn([C@H]2C[C@H](O)[C@@H](CNC(=O)[C@H](N)C3CC3)O2)c(=O)[nH]c1=O
    -1.2%	0.1	-3	-5.7	8	-4
CCN(CC)N=Nc1ccc(S(=O)(=O)N2CCSC2C(=O)O)cc1 (stereo not given)
    -1.3%	0.2	0	-0.4	2	-1
CCOC(=O)COc1ccc2c(=O)c(-c3ccccc3OC)coc2c1
    6.8%	1.3	0	-2.5	15	-9
CCCCS/C(N)=N/N=C/c1ccccc1O
    -0.4%	1.6	-6	-4.2	-3	-4
CC1CC(C)CN(C(=O)COC(=O)c2nn(C)c(=O)c3ccccc23)C1 (stereo not given)
    -0.4%	1.0	1	-7.3	7	0
Cc1ccc(Sc2ccc(C(=O)N3CCOCC3)cc2[N+](=O)[O-])cc1
    -0.9%	-0.1	-8	0.8	0	-2
CN(C)C(=O)CSc1ncccc1-c1nc2ccccc2[nH]1
    -1.5%	-0.1	-1	-0.5	2	0
CC(C)c1cc(Br)ccc1OCCN1C(=O)NC(C)(C)C1=O
    0.0%	1.7	6	2.9	-6	-9
O=C(c1ccc(C(F)(F)F)n(Cc2ccc(Cl)cc2)c1=O)N1CCOCC1
    4.7%	x	8	-2.5	3	7
Cc1[nH]n(-c2ncc(-c3ccccc3)s2)c(=O)c1C(c1ccc(Br)cc1)C(C#N)C#N (stereo not given)
    u	0.7	-7	-6.8	-10	-13
CCCCC(NC(=O)c1cccc(Br)c1)C(=O)O (stereo not given)
    1.6%	0.4	x	6.7	2	0
c1cncc(-c2nnc3n2C2(CCCCC2)Cc2ccccc2-3)c1
    4.1%[38.3 µM]	-0.6	3	-1.7	4	-2
Cc1ccc(S(=O)(=O)N2CCN(C(=O)CCn3nc(C)c(C)c3C)CC2)cc1
    0.1%	0.3	-14	-3.9	1	-9
CCCCNC(=O)C1CCN(C(=O)C2CCN(S(=O)(=O)c3ccc(C)cc3)CC2)CC1
    -0.5%	0.3	6	0.0	7	-5
COc1ccc(NC(=O)CN(C)C(=O)Cc2c[nH]c3ccccc23)cc1
    -2.7%	0.1	-7	2.1	7	7
O=C(NCC1CCCO1)c1cc(S(=O)(=O)N2CCOCC2)ccc1Cl (stereo not given)
    -0.6%	0.7	0	-4.1	2	-12
Cc1cc(C)n(-c2ccc(C(=O)OCC(=O)c3ccc(Br)s3)cc2)n1
    -1.0%	-0.3	-1	-2.2	-3	-5
O=C(CSc1nnc2c(n1)[nH]c1ccc(F)cc12)OCc1ccccc1
    2.1%	3.4	3	1.9	2	14
CC(=O)NC(c1ccccc1)c1nc2ccccc2[nH]1 (stereo not given)
    -2.8%[38.3 µM]	0.6	3	-2.4	3	-11
CC(=O)NN1C(=O)c2ccc3c4c(ccc(c24)C1=O)C(=O)N(NC(C)=O)C3=O
    -1.4%	-0.3	x	5.0	0	u
Cc1ccc(C2C(C#N)=C(N)SC(N)=C2C#N)cc1
    3.0%	4.6	-14	-3.2	-2	10
CC(=O)c1cc(CC(=O)N2CCc3c([nH]c4ccccc34)C2c2ccccn2)cs1 (stereo not given)
    8.6%	3.3	-9	3.2	6	-7
OC1CCCN(c2ncnc3c2nnn3Cc2c(F)cccc2Cl)C1 (stereo not given)
    -0.5%	0.3	2	-1.1	2	1
CC(C)CN1CCC(C(=O)NC(c2ccc(F)cc2)c2ccc3ccccc3n2)CC1 (stereo not given)
    1.9%	-0.1	-23	-5.2	0	-17
COc1cccc(CN2CCC(C(=O)NC(C)c3cccc4ccccc34)CC2)c1 (stereo not given)
    -0.6%	-0.7	-5	-3.4	-9	-20
CCC(Oc1ccccc1)C(=O)N(Cc1ccccc1)c1ccccn1 (stereo not given)
    6.2%	2.5	-5	-2.6	13	-11

Quoted at random: 2 records from the list.
Values run as follows: PINK1 modulator	TRPML1 agonist	CtBP-E1A inh	D2 ag	Six1-Eya2 inh	D2 PAM
COc1cccc(CN2CCC(C(=O)NC(C)c3cccc4ccccc34)CC2)c1 (stereo not given)
    -0.6%	-0.7	-5	-3.4	-9	-20
OC1CCCN(c2ncnc3c2nnn3Cc2c(F)cccc2Cl)C1 (stereo not given)
    -0.5%	0.3	2	-1.1	2	1

Remaining list, next part
Values run as follows: PINK1 modulator	TRPML1 agonist	CtBP-E1A inh	D2 ag	Six1-Eya2 inh	D2 PAM
CCOc1ccccc1OCC(=O)Nc1cccc(S(=O)(=O)NC2=NCCCCC2)c1
    2.2%	0.6	-1	-1.7	-10	-2
Cc1cccc(C)c1NC(=O)c1nc(S(=O)(=O)Cc2ccccc2)ncc1Cl
    -1.6%	0.1	-1	-7.5	-11	-15
Cc1ncoc1C(=O)NCc1ccccc1Cl
    -0.8%	0.0	-11	-0.7	0	8
Cn1ncc2nnn(-c3ccccc3)c(=O)c21
    3.8%	-0.4	4	-4.7	-12	-9
CCCn1c(SCC(=O)N(CC)CC)nnc1-c1ccncc1
    -0.9%	0.6	15	1.2	0	1
COCCNC(=S)N1CCCC(CO)C1 (stereo not given)
    -2.2%	0.3	2	-2.8	5	-3
O=C(Nc1nc(-c2ccccc2)cs1)C1CCCN(S(=O)(=O)c2ccccc2)C1 (stereo not given)
    u	0.9	-11	0.9	-18	-2
O=Cc1cccn1-c1cccc([N+](=O)[O-])c1
    0.6%	-0.4	-1	-0.5	6	-10
O=C(COc1cc(Cl)c(Cl)cc1Cl)NCCN1CCOCC1
    -4.0%	-0.2	0	-0.8	0	8
O=C(NCn1ccc(=O)[nH]c1=S)c1ccccc1
    0.2%	-0.4	11	4.2	9	0
CCCOc1ccc(C(=O)c2nc3c(n2O)CCCCC3)cc1
    2.0%[38.3 µM]	-0.4	-6	-0.6	-5	1
O=S(=O)(NCc1cccnc1)c1ccc(Cl)s1
    -1.1%	-0.4	-10	1.3	-1	13
CCOC(=O)c1csc(NC(=O)CSc2nnnn2-c2ccc(OC)cc2)n1
    3.2%[38.3 µM]	5.1	7	-3.0	0	-4
CCN(CC)S(=O)(=O)c1ccc(-c2nnc(SCC(=O)Nc3ccc4c(c3)OCO4)o2)cc1
    x	0.5	-4	-0.4	5	8
CN(C)c1nc(-c2ccccc2)c2cnn(Cc3ccccc3)c2n1
    7.7%[38.3 µM]	1.4	6	-0.3	55	-19
CC(=O)N/N=c1\sc2ccccc2n1C
    -1.3%	0.7	u	2.7	-3	-16
Cc1ccc(NC(=O)CCSc2ccccn2)cc1
    1.9%	-0.5	-14	-3.5	5	-20
COc1ccc(NC(=O)C23CC4CC(C2)CC(n2cnc(Br)n2)(C4)C3)c(OC)c1
    0.3%	0.6	0	-2.8	12	-40
O=C(NC(=S)Nc1ccc2oc(=O)ccc2c1)c1cc2ccccc2o1
    2.4%	0.0	5	0.7	0	7
CCOC(=O)C(C#N)(Cc1ccc2ccccc2n1)Cc1ccc2ccccc2n1
    -1.9%	0.9	4	6.2	-6	7
O=C(NCc1ccccc1)c1ccc(S(=O)(=O)N2CCCC2)cc1
    5.7%[38.3 µM]	0.0	5	0.3	4	-2
Cc1cc(OCC(=O)Nc2ncn[nH]2)ccc1Cl
    -1.1%&2.5%	0.2&-0.4	x	0.0	-20	-6
Cc1ccc(-c2ccc(C#N)c(=O)n2CC(=O)N(C)C)cc1
    -2.0%	-0.5	u	2.5	-4	-4
COc1ccc2c(c1OC)C(=O)N(c1ccc3c(c1)CCC3)C2=O
    3.7%[38.3 µM]	0.3	7	0.3	3	-10
CCN1CCN(c2nc(NCCO)c3ccccc3n2)CC1
    -1.5%	-0.9	x	-6.5	8	-43
CCOc1ccc(S(=O)(=O)/N=C(/Nc2ccc(S(N)(=O)=O)cc2)c2ccccc2)cc1
    0.0%	-0.6	x	-2.3	-2	-2
Cc1ccc(S(=O)(=O)N2CCC(C(=O)O)CC2)cc1C(=O)O
    0.1%	-1.0	7	-0.5	3	-3
CCOc1ccc(C(=O)Nc2cccc3cccnc23)cc1
    5.4%	2.1	0	6.6	-4	-9
Cc1cn(CC(=O)NCC(c2ccccc2)c2ccccc2)c(=O)[nH]c1=O
    0.0%	-0.6	4	-3.1	0	-11
Cc1ccc2nc(N3CCN(C(=O)c4ccco4)CC3)sc2c1
    0.3%	-0.1	0	3.9	-3	-3
COc1ccc(S(=O)(=O)NCc2ccccn2)cc1NC(=O)c1ccccc1C
    1.9%	0.1	-9	-4.1	22	-7
O=C(c1cccc(S(=O)(=O)N2CCCC2)c1)c1cccc(S(=O)(=O)N2CCCC2)c1
    -0.4%	-0.1	-3	-2.9	4	0
CC1(C)NC(=O)N(CCCCOc2ccc(Br)cc2Cl)C1=O
    0.9%	0.9	-7	1.6	7	-2
COc1ccc(S(=O)(=O)N(CC(=O)NCc2ccncc2)c2ccc(C)cc2)cc1OC
    -1.2%	-0.7	7	-0.4	-3	1
Cc1cc(Cl)c2oc(C(=O)N(C)CC3CCOCC3)c(C)c2c1
    2.8%	0.3	-9	3.0	3	-4
CSc1ccc(CN(C)C(=O)CSCC(=O)Nc2cc(C)on2)cc1
    0.6%	-0.8	-2	-2.4	3	-6
C=C[C@@H]1c2cccc(C)c2N(S(=O)(=O)c2ccc(C)cc2)[C@H](c2ccccc2)C1(C#N)S(=O)(=O)c1ccccc1 (stereo not given in full)
    -0.5%	0.8	-24	-2.0	-1	-6
COc1ccc(CNC(=O)C2(C)Cc3c(-c4cccc(NC(C)=O)c4)ccnc3O2)cc1OC (stereo not given)
    8.6%	-0.9	2	4.0	3	3
CC(=C/c1ccc(C(C)C)cc1)/C=N/NC(=O)c1ccncc1
    0.6%	3.3	-18	3.9	-5	2
CCN(CC)S(=O)(=O)c1ccc(NS(=O)(=O)c2cccc(C)c2)cc1
    -3.8%	-0.2	0	0.0	5	-4
COC(=O)[C@H](Cc1ccccc1)NC(=O)N1CCCCC1C (stereo not given in full)
    -2.0%[38.3 µM]	1.9	0	-1.3	0	-2
CCc1ccccc1NC(=O)c1ccc(NS(C)(=O)=O)cc1
    -0.9%	0.3	0	2.4	-11	2
Cc1ccc(S(=O)(=O)/N=C(\Nc2cccc(C)c2)Nc2nc(C)cc(C)n2)cc1
    17%	1.7	2	-5.4	-2	-13

Profiles as entered above. Order of screens: PINK1 modulator | TRPML1 agonist | CtBP-E1A inh | D2 ag | Six1-Eya2 inh | D2 PAM
CCOC(=O)COc1ccc2c(=O)c(-c3ccccc3OC)coc2c1 as listed: 6.8% | 1.3 | 0 | -2.5 | 15 | -9
CC(=C/c1ccc(C(C)C)cc1)/C=N/NC(=O)c1ccncc1 as listed: 0.6% | 3.3 | -18 | 3.9 | -5 | 2

Screens as filed in PubChem.
